# Rce1 inh: yeast Ras-converting enzyme inhibition | calls only | 290,000 compounds, 0.27% hits | yeast membranes, quenched prenylated peptide cleavage fluorescence | AID 2563;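 active = fall in fluorescence gain of 50% or more versus controls, with final raw signal at or below 3038400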;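 also: plate controls were neutral control wells for no effect and wells lacking membranes for full effect; tested at 10 µM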
# PABP FP inh: PABP-poly(A) binding inhibition. inhibition, % at 35 µM. 290,000 compounds, 1% hits. PABP-poly(A) RNA binding, fluorescence polarization;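 active = 50% or more with normal probe brightness, or confirmed in later tests; about a fifth of its hits are not listed in these tables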;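 also: calls also rest on retests at 20 µM and on dose response follow-up; controls were probe without protein and protein plus probe with vehicle; some compounds called inactive have numbers as strong as hits; many hits fall short of the cut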
# Target sequence (P11940 whole entry, looked up): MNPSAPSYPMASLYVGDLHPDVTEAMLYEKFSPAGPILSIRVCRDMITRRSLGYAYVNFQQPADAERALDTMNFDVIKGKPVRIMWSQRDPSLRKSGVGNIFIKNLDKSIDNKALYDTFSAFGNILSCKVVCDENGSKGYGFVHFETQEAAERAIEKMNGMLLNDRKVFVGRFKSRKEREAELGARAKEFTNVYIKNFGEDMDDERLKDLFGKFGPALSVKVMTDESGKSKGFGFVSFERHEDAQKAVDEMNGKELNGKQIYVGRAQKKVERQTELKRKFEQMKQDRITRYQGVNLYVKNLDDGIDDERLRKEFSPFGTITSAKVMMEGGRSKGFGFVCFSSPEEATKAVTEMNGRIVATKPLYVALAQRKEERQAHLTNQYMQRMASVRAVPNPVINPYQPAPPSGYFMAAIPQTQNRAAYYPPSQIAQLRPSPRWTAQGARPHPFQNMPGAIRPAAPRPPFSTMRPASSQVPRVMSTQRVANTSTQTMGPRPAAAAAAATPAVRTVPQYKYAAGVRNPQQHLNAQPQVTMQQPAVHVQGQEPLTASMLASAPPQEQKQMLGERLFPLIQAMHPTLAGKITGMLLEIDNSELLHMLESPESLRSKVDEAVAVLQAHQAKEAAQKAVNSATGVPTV
# CSC inhib: blocks cancer stem cells; AID 2717; inhibition, % at 7.5 µM; cancer stem cell-like cells viability, luminescence; 300,000 compounds, 1.1% hits;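 active = mean at 75% or more and at least half the replicates too; tested in HMLE shEcad cells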;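 also: 0% = median of negative and 100% = median of positive control wells; the first replicate is given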
# UUG fidelity: alters start codon recognition fidelity in yeast | S. cerevisiae UUG-firefly luciferase reporter, luminescence/redox ratio | activity score, % at 18.7 µM | 350,000 compounds, 0.13% hits;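 active = replicate mean at a twofold rise or more, about +100% in these data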;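 also: firefly luciferase made from a UUG start codon reports start codon fidelity; reporter light over untreated wells divided by growth signal over untreated wells; some hits fall short of that in this replicate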
# MT1-MMP act inh: inhibitors of human MT1-MMP activation | AID 651647 | HT1080 RFP-PRO-GFP cells, GFP/RFP ratio fluorescence, overnight; percent of plate control window, DMSO zero | GFP/RFP ratio change, % at 20 µM | P50281 | 360,000 compounds, 0.061% hits;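 active = GFP/RFP ratio change of at least 30% with cell ATP level not reduced by more than half and red fluorescence within 50% of control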; also: strong numbers were not always called active
#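 system = RFP-PRO-GFP reporter HT1080 cells | dosing = 20 µM single dose, 1% DMSO | timing = overnight cell settling, then overnight compound exposure, 37 °C, 5% CO2 | read-out basis = GFP/RFP fluorescence ratio | controls = DMSO and RFP-L50D-GFP cell wells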
# Env fusion inh: inhibitors of HIV Env-mediated cell fusion; AID 651610; 360,000 compounds, 1.1% hits; HeLa-JRFL Env/CEM21 cell fusion, luciferase; inhibition, % at 12.3 µM;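 active = mean replicate inhibition score of at least 50 and every replicate individually at or above 50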;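 also: 0% = plate neutral controls and 100% = maraviroc near 300 nM; one replicate is shown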
# eIF4H FP inh: inhibitors of RNA binding by human eIF4H; Q15056; eIF4H fluorescence polarization binding assay; inhibition, % at 35 µM; 290,000 compounds, 0.94% hits; AID 2012;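 active = 50% or more with normal probe brightness, or confirmed in later tests; about a fifth of its hits are not listed in these tables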;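 also: calls also rest on retests at 20 µM and on dose response follow-up; 0% = protein and probe with vehicle and 100% = probe without protein; strong numbers were not always called active; many hits fall short of the cut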
# eIF4H FP inh retest: recorded beside eIF4H FP inh, whose call it bears; inhibition, %; compound at 20 µM; confirmation average;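 mean of two retest wells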
# PABP FP inh retest: further read-out of PABP FP inh, marked with its call; inhibition, %; compound at 20 µM; confirmation repeats;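 mean of two retest wells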
# MT1-MMP act inh RFP: second read-out of MT1-MMP act inh, no call of its own (marks repeat the call); RFP signal change, %; measured here: RFP expression control read;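 0 = vehicle wells; hits needed this value within 50% of zero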
# * hit, by the source's call; i = inactive; . = no result given.
SMILES,Rce1 inh,PABP FP inh,CSC inhib,UUG fidelity,MT1-MMP act inh,MT1-MMP act inh RFP,Env fusion inh,eIF4H FP inh,others
CCn1c(COC(=O)CNC(=O)c2ccccc2)nc2cc(S(=O)(=O)N(C)C)ccc21,i,.,6,-10,0,3,-27,.,
O=S1OCCN1c1ccccc1 (stereo not given),i,3,1,-16,1,0,20,-5,
CCc1c(C)sc(NC(=O)c2cc(-c3ccc(OC)c(OC)c3)on2)c1C#N,.,5,11,.,6,5,-156,-8,
CCOC(=O)C1=CN(Cc2cccc(F)c2)S(=O)(=O)NC1CCc1ccccc1 (stereo not given),.,.,.,-18,-2,-8,-6,.,
Cn1c(C(=O)N2CCCC(C(=O)NCc3ccc4c(c3)OCO4)C2)cc2sccc21 (stereo not given),i,6,-9,3,-1,-8,.,5,
COc1cc([N+](=O)[O-])ccc1NC(=O)Oc1ccc(NC(C)=O)cc1,i,8,13,-27,0,-1,-4,-14,
Cc1ccc(N2C(=O)NC(NC(=O)C(C)(C)C)(C(F)(F)F)C2=O)cc1 (stereo not given),i,6,-2,-3,-4,-1,-8,-13,
O=C(CSc1ccc(-c2cccc([N+](=O)[O-])c2)nn1)N1CCCCCC1,i,15,-11,-4,2,-1,12,-1,
COc1ccc(C2Nc3ccccc3C(=O)N2Cc2ccccc2)cc1Cn1nnc2ccccc21 (stereo not given),i,4,14,-18,1,-7,.,4,
COc1ccc(-c2nnc(SCc3ncc(-c4ccccc4)o3)o2)cc1,i,-3,-4,.,-3,4,-18,-7,
Cc1noc(C)c1COC(=O)C(c1ccccc1)c1ccccc1,i,12,-1,.,-1,1,17,5,
CCN(CC)S(=O)(=O)c1ccc2[nH]c(=O)cc(C(=O)Nc3ccccc3N3CCCC3)c2c1,i,2,6,-7,-4,-4,15,-11,
CCc1nc2ccc(C(=O)NCCCN(C)C)cn2c1N(C)Cc1ccc(OC)cc1,.,.,.,-10,-6,-1,6,.,
CCN1C(=O)[C@H]2[C@@H](c3ccc(-c4ccccc4)cc3)N[C@@](CC(C)C)(C(=O)OC)[C@H]2C1=O,i,.,24,1,-1,-4,-17,.,
CN1C(=O)C(O)(c2sc(N)nc2-c2ccccc2)c2ccccc21 (stereo not given),i,7,-12,-12,2,7,.,-2,
Nc1nnc2cc(Cl)ccc2n1,.,.,.,-16,-2,6,-35,.,
COc1cccc(C(C)(O)c2nc(-c3ccc4c(c3)OCO4)cs2)c1 (stereo not given),.,.,.,-8,-8,-23,51,.,
CC(=O)c1ccc(N2CCN(S(=O)(=O)c3ccc4c(c3)C(Cl)(Cl)C(=O)N4)CC2)cc1,.,.,.,-18,-1,-3,15,.,
Cc1cc(CSc2ccc(Cl)cc2)ccc1N,.,.,.,-28,-12,-12,1,.,
Nc1ccc2nc(-c3cccc(-c4nc5ccc(N)cc5[nH]4)c3)[nH]c2c1,i,3,32,.,5,1,-7,6,
Cc1csc(SCC(=O)Nc2nncs2)n1,i,-1,-23,-9,-3,-4,2,4,
CC(C)n1ncc2c(C(=O)N3CCN(c4ccc(F)cc4)CC3)cc(-c3ccccc3)nc21,.,.,.,-6,0,-2,-14,.,
O=C(NC1CCCCC1)C(c1cccnc1)N(C(=O)c1ccc(Cl)nc1)C1CCCCC1 (stereo not given),i,3,-4,-16,7,9,14,-3,
CN(Cc1ccccc1)S(=O)(=O)c1ccc(OCC(=O)NCc2ccccn2)cc1,i,-7,1,.,-1,-1,-1,-13,
O=c1[nH]n2c(=O)c3c([nH]c2c1N=Nc1cccc(Cl)c1)CCC3,i,-3,-6,-26,26,12,14,3,
O=C(CCN1C(=O)C2CC=C(Cl)CC2C1=O)Nc1ccccc1O (stereo not given),i,9,-7,-12,3,6,.,-7,
CCN(c1ccccc1)S(=O)(=O)c1ccc(OC)c(NC(=O)CNCC(C)O)c1 (stereo not given),i,-13,33,-7,1,-1,-10,-3,
COc1cccc(Nc2nc3ccc(C(=O)c4ccccc4)cc3n3cnnc23)c1,i,2,-9,0,-4,0,37,-3,
COc1ccc(C(=O)NC2CCN(CC(=O)NCc3ccccc3F)CC2)cc1,i,1,7,-17,1,6,-6,-6,
COc1ccc(C2c3c(oc4ccccc4c3=O)C(=O)N2c2ccccn2)cc1OC (stereo not given),i,2,2,-14,4,2,-19,7,
O=C(CCc1ccccc1)NNC(=O)c1ccccn1,i,-7,5,.,6,1,22,7,
Cc1noc(C)c1C(=O)N1CCN(Cc2ccc3c(c2)OCO3)CC1,i,8,5,-8,-3,-2,.,-7,
CC1CCC2(CC1)NC(=O)N(Cc1nnc(-c3cccs3)o1)C2=O (stereo not given),i,-8,-15,.,-1,-4,15,-10,
CC1Nc2nc(NC(=O)C(C)(C)C)[nH]c(=O)c2N(C)C1C (stereo not given),i,11,-6,7,-1,5,23,0,
Cc1ccc(NC(=O)Cn2c(=O)oc3ccccc32)cc1,i,-2,3,.,3,4,-7,9,
CC(C)CN1C(=O)c2ccc(C(=O)Nc3ccc(O)cc3C(=O)O)cc2C1=O,i,11,-13,0,-1,3,2,1,
CC1CCCCN1Cc1ccc(-c2nn[nH]n2)cc1 (stereo not given),i,-2,-1,.,4,5,.,-6,
Cc1ccc(S(=O)(=O)CCC(=O)OCC(=O)c2ccc(C)c(C)c2)cc1,i,0,-6,-23,0,3,-40,6,
CC(=O)N1c2ccc(S(=O)(=O)N3CCC(C(=O)N4CCN(c5ccccc5F)CC4)CC3)cc2CC1C (stereo not given),i,10,1,6,4,-5,-4,3,
COc1ccc(/C=C2\SC(=S)N(CCCC(=O)N3CCOCC3)C2=O)cc1,i,-7,-6,-34,-3,-3,-199,-13,
Cc1ccc(S(=O)(=O)NCCC(=O)Nc2cccc(S(N)(=O)=O)c2)cc1C,i,0,-9,-39,-5,-3,-10,-9,
COc1ccc(N=C2NN=C(c3ccc4c(c3)OCCO4)CS2)cc1,i,20,-12,-18,4,3,.,0,
Cc1nc2ccc(Br)cc2c(-c2ccccc2)c1C(=O)O,i,13,-11,.,3,7,18,-4,
COc1ccc(C(=O)NNC(=O)C2CCN(S(=O)(=O)c3ccc(C)cc3)CC2)cc1,i,38,-11,-6,-3,0,16,-6,
COc1cccc(/C=C/C(=O)NNC(=O)c2cc(C)oc2C)c1,i,.,-21,0,-3,-3,20,.,
COCCn1c(SCC(=O)NC2CCCCC2C)nc2ccccc2c1=O (stereo not given),i,-7,-8,-5,-2,-3,0,-11,
Cc1onc(-c2c(F)cccc2Cl)c1C(=O)Nc1cccc(S(=O)(=O)NC2=NCCC2)c1,i,.,.,3,1,-1,-4,.,
CC1=C(C(=O)Nc2cc(C)ccn2)C(c2cnn(C)c2)C2=C(CC(c3ccccc3)CC2=O)N1 (stereo not given),i,2,-13,-7,0,5,5,4,
O=C(Cc1nc(=O)c2ccccc2s1)Nc1ccccc1,i,-3,1,-21,9,6,-256,-12,
Cc1cccc(OCC(=O)OCC(=O)N2CCCc3ccccc32)c1C,.,.,.,-1,-3,6,4,.,
COc1cc(/C=N/NC(=O)CN2CCCCC2)ccc1OCc1ccc(Br)cc1,i,9,4,.,6,7,.,-22,
CCCn1c(NC(=O)c2ccc(F)cc2)nc2ccccc21,i,-5,-1,-14,6,3,0,3,
COc1cc(/C=N/NC(=O)c2nnn(-c3nonc3N)c2-c2cccs2)ccc1O,i,0,-6,-10,-1,-1,-3,-6,
Cc1cn(S(=O)(=O)c2ccc(Br)c3ccccc23)cn1,.,-4,60,.,.,.,.,2,
CCOC(=O)/C(C#N)=C1/C(=O)N(Cc2ccccc2)c2ccccc21,.,-1,.,.,1,9,0,1,
CSc1nsc(/C=C/Nc2ccc(C)c(C)c2)c1C#N,i,6,4,-5,-71,8,-13,9,
CCOC(=O)c1[nH]cnc1C(=O)NC1CCCCC1,i,-5,0,-20,4,7,20,3,
O=C(NNC(=O)c1cc(Br)ccc1Cl)c1csc(N2CCOCC2)n1,i,-13,4,-3,3,4,-13,5,
COc1ccc(N2CCN(C(=O)CCNS(=O)(=O)c3ccc(C)cc3)CC2)cc1,i,-14,-11,-5,-1,-3,-1,-8,
O=C(N/N=C/c1c(O)ccc2ccccc12)c1cccc(C(F)(F)F)c1,i,-3,.,.,-268,-14,-325,59,eIF4H FP inh retest=18;PABP FP inh retest=44

# (further entries)
SMILES,Rce1 inh,PABP FP inh,CSC inhib,UUG fidelity,MT1-MMP act inh,MT1-MMP act inh RFP,Env fusion inh,eIF4H FP inh,others
CSCC[C@H](NC(=O)c1ccc(Cl)c([N+](=O)[O-])c1)c1nc2ccccc2[nH]1,i,-5,8,-16,0,-5,10,-1,
CC(=O)N1CCC(=NNc2ccnc3cc(Cl)ccc23)CC1,i,4,-6,-8,0,4,13,27,
N#C/C(=C\c1ccc(C#N)cc1)C(=O)N1CCCC1,i,2,3,.,-2,3,.,2,
CCOC(=O)C1CCN(C(=O)CSc2nc3ncccc3[nH]2)CC1,i,12,-2,-6,2,6,-1,-15,
CCOC(=O)c1ccccc1NC(=O)CN1C(=O)NC(C)(CCc2ccccc2)C1=O (stereo not given),i,.,25,-1,-2,-4,0,.,
O=C(OCc1cccc(F)c1)c1cc2ccccc2cc1O,i,1,1,-13,-2,-1,-61,1,
CCCCCC(=O)Nc1cccc(C2=NOC3(C2)C[C@@H](C(N)=O)N(C(=O)CC(c2ccccc2)c2ccccc2)C3)c1 (stereo not given in full),i,2,18,2,-2,-9,3,-11,

# Compound activity as filed in PubChem BioAssay.

# A portion of the library (hit frequency here may not be typical).
